# VDR inhibitor: inhibitors of human vitamin D receptor. VDR-SRC2-3 peptide fluorescence polarization, 2 h. 0.93% of 400,000 active. P11473. Potency, µM, inactives show max response, negative = inhibition, usual class: inhibitors; active means well fitted inhibition curve with a large enough effect; inconclusive means small, poorly fitted or top-dose-only effect, or another doubt; inactive means no such curve, though single readings can be large or run the other way; further: series mostly up to about 120 µM
# Target sequence (P11473 whole entry, looked up): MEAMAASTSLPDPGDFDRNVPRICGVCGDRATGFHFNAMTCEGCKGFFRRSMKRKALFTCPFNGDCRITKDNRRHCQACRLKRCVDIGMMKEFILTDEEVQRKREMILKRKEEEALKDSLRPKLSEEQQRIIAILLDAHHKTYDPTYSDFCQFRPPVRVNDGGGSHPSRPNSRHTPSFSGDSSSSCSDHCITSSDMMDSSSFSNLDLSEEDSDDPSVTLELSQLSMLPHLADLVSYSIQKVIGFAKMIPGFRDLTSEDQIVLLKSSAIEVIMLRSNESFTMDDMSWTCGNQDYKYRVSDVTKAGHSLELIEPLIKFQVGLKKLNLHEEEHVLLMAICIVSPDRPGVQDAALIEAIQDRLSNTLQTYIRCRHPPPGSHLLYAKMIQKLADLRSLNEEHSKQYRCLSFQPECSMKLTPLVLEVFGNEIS
#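 VDR–SRC2-3 interaction, FP format. Cmpds 23 nl via pintool, brief spin, 2 h ambient incubation.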
# Numbers without * were called inactive; ? = inconclusive; & = joins results of further samples. On the % scale 0 is the no-effect control and ±100 the full control effect; potency means the concentration at half of the fitted maximal effect. A portion of the library; rates above refer to the full screens.
# A first look, six compounds:
compound | VDR inhibitor
Nc1nc(SCC(=O)NCc2ccccc2Cl)[nH]c(=O)c1NC(=O)c1ccccc1F | -2%
CN(C)Cc1c(C(=O)N/N=C/c2cccnc2)nnn1-c1nonc1N | -4%
O=C(CCc1ccccc1)NNC(=O)COc1ccc([N+](=O)[O-])cc1 | -8%
NS(=O)(=O)c1cccc(NC(=O)COC(=O)c2ccc(S(=O)(=O)N3CCOCC3)cc2)c1 | 2%
CCCCNC(=O)C(CC)n1c(SCc2cccc(F)c2)nc2ccncc21 (stereo not drawn) | -17%
CC(OC(=O)c1cc2sccc2n1C)C(=O)NCc1ccco1 (stereo not drawn) | 11%

# The listing, repeating the preview:
compound | VDR inhibitor
Nc1nc(SCC(=O)NCc2ccccc2Cl)[nH]c(=O)c1NC(=O)c1ccccc1F | -2%
CN(C)Cc1c(C(=O)N/N=C/c2cccnc2)nnn1-c1nonc1N | -4%
O=C(CCc1ccccc1)NNC(=O)COc1ccc([N+](=O)[O-])cc1 | -8%
NS(=O)(=O)c1cccc(NC(=O)COC(=O)c2ccc(S(=O)(=O)N3CCOCC3)cc2)c1 | 2%
CCCCNC(=O)C(CC)n1c(SCc2cccc(F)c2)nc2ccncc21 (stereo not drawn) | -17%
CC(OC(=O)c1cc2sccc2n1C)C(=O)NCc1ccco1 (stereo not drawn) | 11%
CNC(=O)c1ccc(-c2cc3onc(-c4ccccc4)c3c(=O)n2C)cc1 | -10%
OC[C@H]1O[C@@H](n2cnc3c(Nc4ccccc4)ncnc32)[C@H](O)[C@@H]1O | 5%&15%
O=C(O)CSc1nc2ccccc2s1 | -3%
COCCC(=O)Nc1ccc2c(c1)CN(C(=O)CSC)CC2 | -1%
CCn1c(SCC(=O)Nc2nc(C)c(C)s2)nc2cccnc21 | 4%
COc1ccc(-n2ncc3c2CC(C)(C)CC3NC(=O)c2ccc(OC)o2)cc1 (stereo not drawn) | -14%
CCOc1cc(/C=N/NC(=O)c2nn(C)cc2Br)ccc1OCc1ccccc1 | -18%
CCNc1ncc2nc(-c3ccc(OC)cc3)c(=O)n(C)c2n1 | 4%
O=S(=O)(c1ccccc1)N(F)S(=O)(=O)c1ccccc1 | -26%

# Next part
compound | VDR inhibitor
NC1=CC(=O)C(=O)c2ccccc21 | 45µM*
CCOc1ccccc1NC1=C(Cl)C(=O)N(Cc2ccccc2)C1=O | 3%
CCCn1cc(S(=O)(=O)c2ccc(CC)cc2)c(=O)c2cc(F)c(N3CCN(C)CC3)cc21 | 13%
COc1cc(/C=C/C(=O)OCC(=O)c2ccc(OC(F)F)cc2)ccc1O | -2%
COc1ccccc1C(=O)NCCC(=O)NCCC12CC3CC(CC(C3)C1)C2 | -8%
CCOC(=O)c1ccc(N2C(=O)c3n[nH]c(-c4cccs4)c3C2c2cccc(O)c2)cc1 (stereo not drawn) | 1%
Cc1ccc(S(=O)(=O)NC(=O)Nc2nccs2)cc1 | -6%
COC(=O)C1CCCCN1C(=O)c1cccc(OC2CCN(C(=O)C3CC3)CC2)c1 (stereo not drawn) | 3%
CCOC(=O)C1=C(C)Nc2nc(C)nn2C1c1ccc(C)cc1 (stereo not drawn) | -5%
NS(=O)(=O)c1ccc(NC(=O)COC(=O)C23CC4CC(CC(C4)C2)C3)cc1 | -17%
CN(c1ccccc1)S(=O)(=O)c1cccc(NS(=O)(=O)c2cccc(C(=O)O)c2)c1 | 7%
CC(OC(=O)c1ccco1)C(=O)NCc1cccs1 (stereo not drawn) | 10%
CCOCCSc1c(C)cnc2c1c(=O)n(C)c(=O)n2C | 5%
Cc1ccc(-c2c(C(=O)N/N=C/c3ccc(C)o3)nnn2-c2nonc2N)cc1 | -17%
COc1ccc(CN(CCNC(=O)CCCCC(=O)NCCN(Cc2ccc(OC)cc2)C(C)C)C(C)C)cc1 | -1%

# New compounds follow
compound | VDR inhibitor
N/C(=N\OC(=O)COc1ccc(Br)cc1Cl)c1ccncc1 | 0%
COc1ccc(-n2c(Cc3cccn3C)nnc2SCC(=O)Nc2ccc3c(c2)OCO3)cc1 | -2%
COc1cccc(NC(=O)Nc2nnc(CC(=O)Nc3ccccc3)s2)c1 | -25%
CC(C)=CCc1cc([C@@H]2CC(=O)c3ccc(O)c(CC=C(C)C)c3O2)ccc1O | -1%
COCCN(CCOC)S(=O)(=O)c1ccc(OC)cc1 | 9%
COc1cc(C)c(Cl)c(C)c1S(=O)(=O)NCc1cccnc1 | 1%
O=C1OC(c2ccccc2)(c2cc(Br)c(O)c(Br)c2)c2ccccc21 (stereo not drawn) | -18%
COc1ccc(OC)c2nc3c(cc12)CCC3 | -12%
CCOc1ccc2nc(Cl)sc2c1 | -12%
NCCNC[C@@H]1COC2(CCCCCCCCCCC2)O1 | -19%
Cc1noc(C)c1CSc1nnc(-c2c[nH]c3ccccc23)n1-c1ccc(Cl)cc1 | 4%
CN(C)c1ncc2nc(-c3ccc(F)cc3)c(=O)n(C)c2n1 | -1%
CCN(CC)CCCN=Cc1c(O)n(-c2cccc(C)c2)c(=O)c2ccccc12 | 5%
COC(=O)c1ccccc1NC(=O)Cn1nc(C(F)(F)F)c2c1CCC2 | 2%
O=c1c2c3c(sc2n2cnnc2n1-c1ccccc1)N(Cc1ccccc1)CCC3 | ?

# Exported field by field: part of the list above.
> COc1cc(C)c(Cl)c(C)c1S(=O)(=O)NCc1cccnc1
  VDR inhibitor: 1%

> O=C1OC(c2ccccc2)(c2cc(Br)c(O)c(Br)c2)c2ccccc21 (stereo not drawn)
  VDR inhibitor: -18%

# (further entries)
compound | VDR inhibitor
CCOc1ccc(NC(=O)CCC(=O)NNC(=O)Nc2ccc(Cl)cc2)cc1 | -4%
COc1cccc(NC(=S)N(CCCN2CCCC2)Cc2ccco2)c1 | -16%
COc1ccc(-c2noc(-c3ccc(NCc4cccnc4)c([N+](=O)[O-])c3)n2)cc1OC | 2%
O=C(CCn1c(=S)oc2ccccc21)NC1CCCCCC1 | 0%
N#Cc1c(N)c(C#N)c(-c2ccc(O)cc2)c2c1CCCC2 | 12%
CC(C)CC(=O)Nc1c(C(=O)N2CCN(Cc3ccccc3)CC2)oc2ccccc12 | 10%
Cc1ccc(NC(=S)NNC(=O)c2cn(C)nc2C)cc1 | -15%
O=C(CN1CCN(c2ccccc2O)CC1)Nc1ccc(S(=O)(=O)N2CCCCCC2)cc1 | -8%
O=C(c1cc(-c2cccnc2)nc2ccc(Cl)cc12)N1CCN(S(=O)(=O)c2cccs2)CC1 | 2%
Nc1c(-c2ccccc2)cnn1-c1cccc(Cl)c1 | 6%
O=C(NCCCN1CCOCC1)c1c(O)c2cc(Br)cc(Br)c2[nH]c1=O | -2%
CCOC(=O)C1CCN(C(=O)Nc2ccc3nc(C)c(C)nc3c2)CC1 | -2%
COc1cccc(CNC(=O)Cn2ncc3c(=O)oc4ccccc4c32)c1 | -14%&-18%
Cc1ccc(S(=O)(=O)N2CCc3cc(C(=O)N(C)Cc4ccccc4)ccc32)cc1 | -2%
CCn1cc(S(=O)(=O)NCCc2ccc(OC)c(OC)c2)cn1 | -2%

# (cont.)
compound | VDR inhibitor
CCNc1nc(Oc2ccc(OC)cc2)cc(C(F)(F)F)n1 | -8%
O=C(CCNS(=O)(=O)c1ccccc1)Nc1ccccc1 | -9%
CCOc1ccc(/C(O)=C2/C(=O)C(=O)N(CCOCCO)C2c2cccnc2)cc1 (stereo not drawn) | -2%
COc1cccc(NC(=O)CNS(=O)(=O)c2ccc(Cl)cc2)c1 | 2%
Cc1cc(C)n(-c2nc3ccccc3nc2Nc2ccc(N(C)C)cc2)n1 | -14%
Nc1cc(=O)[nH]c(SCC(=O)Nc2cccc(S(=O)(=O)N3CCCCC3)c2)n1 | 0%
COc1ccc(-c2c(-c3cc(OC)cc(OC)c3)n(C)c3ccc(-c4ccc(SC)cc4)cc23)cc1 | 11%
CC(C)Cn1c(N)c(C(=O)CSc2nnnn2C)c(=O)n(C)c1=O | 1%
COC(=O)c1sccc1NC(=O)Cc1ccc(OC)c(OC)c1 | -7%
O=C(N[C@@H]1C/C=C\C[C@@H](CC(=O)N(CCO)Cc2ccccc2)C(=O)NC[C@H](c2ccccc2)OC1=O)OCC1c2ccccc2-c2ccccc21 | 10%
O=C(Cc1ccccc1)NNC(=O)Nc1ccccc1 | -25%
Cc1ccc(CS(=O)(=O)CCC(=O)NCCN2CCCCC2C)cc1 (stereo not drawn) | 9%
CCn1c2ccccc2c2cc(CN3CCN(Cc4ccccc4F)CC3)ccc21 | -8%
CC(=O)N(c1ccc(C(C)C)cc1)C1C=CS(=O)(=O)C1 (stereo not drawn) | 1%
COc1cccc(CNS(=O)(=O)c2ccc3c(c2)N(C(C)=O)CCS3)c1 | -5%

# A few values from the entries so far:
# VDR inhibitor result of O=C(CCNS(=O)(=O)c1ccccc1)Nc1ccccc1 : -9%
# VDR inhibitor result of Cc1cc(C)n(-c2nc3ccccc3nc2Nc2ccc(N(C)C)cc2)n1 : -14%

# Continued.
SMILES | VDR inhibitor
CCOc1ccccc1NC(=O)Cn1c(=O)n(Cc2ccccc2)c(=O)c2c(C)c(C)sc21 | -13%
Cc1nn2cc(-c3ccc(Cl)cc3)nc2s1 | -2%
C=CCn1c(-c2cccs2)nc2nc3ccccc3nc21 | -6%
CC1CCC(C(C)C)C(P(=O)(c2ccccc2)c2ccccc2)C1 (stereo not drawn) | 1%
Cc1ccc(S(=O)(=O)N2CCOCC2)cc1C(=O)Nc1ccccc1N1CCOCC1 | -4%
COc1ccc(-c2c(C)c3ccc(O)c(CN4CCOCC4)c3oc2=O)cc1OC | 9%
N#C/C(=C\c1ccc[nH]1)C(=O)Nc1ccccc1Cl | -12%
CC1CCN(c2ccc(/C=C(\C#N)c3nn(-c4ccccc4)c(N)c3C#N)cc2[N+](=O)[O-])CC1 | -12%
COc1ccc(-n2nc(C(=O)NCC(=O)NCCC3=CCCCC3)c3ccccc3c2=O)c(OC)c1 | 0%
CC(C)(C)SCCNC(=O)CN(c1ccc(F)cc1)S(C)(=O)=O | 22%

# Carrying on:
SMILES | VDR inhibitor
COc1cc(S(=O)(=O)NCC2COCCO2)ccc1-n1cnnn1 (stereo not drawn) | 2%
Cc1ccc(S(=O)(=O)N2CCOCC2)cc1NC(=O)COC(=O)c1ccc(OCc2c(C)noc2C)cc1 | 11%
COc1ccc(N2CC(O)=C(c3nc(C)cs3)C2=N)cc1 | 4%
O=C(O)c1ccc(Cn2c(SCc3ccc(F)cc3)nc3ccncc32)cc1 | 2%
CCN(CC)c1ccc(NC(=O)CCNS(=O)(=O)c2ccc3c(c2)CCC(=O)N3)c(C)c1 | 3%
COc1ccc(NC(=S)NCc2ccccc2Cl)c(OC)c1 | 11%
Cc1cccc(N2CCN(C(=O)c3cnn(-c4ccccc4)c3C3CCN(C(=O)OC(C)(C)C)CC3)CC2)c1C | 5%
Cc1ccc(CNC(=O)CCc2nc3ccccc3c(=O)[nH]2)cc1 | 12%
O=S(=O)(c1ccccc1F)N1CCN(C(=S)NCc2ccccc2)CC1 | -7%
O=C(O)CCSc1nnc(-c2cccnc2)n1-c1ccccc1 | 9%

# Next results:
SMILES | VDR inhibitor
CC1=C(C(=O)OCCOC(C)C)C(c2cccnc2)C2=C(CCCC2=O)N1 (stereo not drawn) | -24%
O=C(Nc1ccc(Cl)cc1)Nc1nc(-c2sccc2Br)cs1 | 10%
O=C(COc1ccc(F)cc1)NN1C(=O)CSC1=S | 14%
COCCNC(=O)CSc1nc2cc3c(cc2c(=O)n1Cc1ccco1)OCO3 | -4%
CCN1C(=O)[C@H]2[C@@H](c3ccc(C)cc3)N3C(=O)N(c4cccc(C)c4)C(=O)[C@@]3(Cc3ccccc3)[C@H]2C1=O | -5%
CCc1nc(SCC(=O)N2CCCc3ccccc32)c2oc3ccccc3c2n1 | -4%
O=C(N/N=C/c1cccc2ccccc12)c1ccncc1 | -2%
Cc1cc([N+](=O)[O-])cnc1Sc1nccn1C | -14%
O=C(N/N=C/c1ccccc1F)c1ccc(COc2ccccc2Cl)o1 | 9%
O=C(Nc1ccc(Cl)cc1Cl)c1ccc(Br)o1 | -6%

# The listing continues.
SMILES | VDR inhibitor
CCn1nc(C)c(CN2CCc3c([nH]c4ccccc34)C2C(C)(C)C)c1C (stereo not drawn) | 7%
CC(=O)c1cccc(NC(=O)C(C)OC(=O)CCC2CCCCC2)c1 (stereo not drawn) | -6%
CC(=O)N1CCc2cc(Br)cc(S(=O)(=O)N3CCC(C)CC3)c21 | -7%
Cc1sc2nc(C)n(/N=C/c3ccccc3)c(=O)c2c1C | 0%
CC(OC(=O)c1cc(-c2cccnc2)nc2ccccc12)C(=O)Nc1ccc2ccccc2c1 (stereo not drawn) | -10%
CCOC(=O)c1[nH]c(C)c(C(=O)NCCN2CCOCC2)c1C | -18%
O=C(CNC(=O)c1ccccc1)OCC(=O)N1N=C(c2ccc(Cl)cc2)CC1c1ccco1 (stereo not drawn) | -6%
O=C1CC(c2c(F)cccc2Cl)c2c(ccc3ccccc23)N1 (stereo not drawn) | 0%
Nc1nc(-c2ccco2)nn1S(=O)(=O)c1ccc(Cl)cc1 | 4%
COc1cccc(Cn2nnc(C(=O)Nc3cc(Cl)ccc3OC)c2N)c1 | -12%

# Continued.
SMILES | VDR inhibitor
COc1ccc(CN2C(=O)CCCc3ccccc32)cc1 | 6%
CCC1(CC)NC(=O)N(CC(=O)OCC(=O)Nc2ccccc2[N+](=O)[O-])C1=O | 9%
COc1ccc(C(=O)NCc2ncccc2C)cc1OC1CCN(C(C)=O)CC1 | -4%
CC(NC(=O)Cc1ccc(NS(=O)(=O)c2cccc(C(F)(F)F)c2)cc1)c1ccccn1 (stereo not drawn) | -7%
Cc1ccc(C(=O)n2cnnc2N)cc1C | -11%
Cc1cc(=O)oc(C)c1C(=O)NCC1COc2ccccc2O1 (stereo not drawn) | -6%
O=C(NCCCn1ccnc1)C1CC(c2ccccc2Cl)=NO1 (stereo not drawn) | -6%
CCC(C)C(NC(=O)c1ccccc1NC(=O)c1ccc(C)cc1)C(=O)O (stereo not drawn) | 7%
COc1ccc(C(=O)NNC(=O)COc2ccc(Cl)cc2)c(OC)c1 | -8%
O=c1c(Cc2ccccc2)c(O)nc2n1CCS2 | -8%
COc1cc(C(F)(F)F)c(C(=O)NCc2cccc(Cl)c2)cn1 | 4%
O=C(Cn1ncn2c(cc3ccccc32)c1=O)NCCc1cccs1 | -1%
